HSV augment: increases HSV replication in cells; HSV replication augmentation in cells, fold increase; maximum fold increase; actives 0.005% (n = 220,000); AID 1956;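 active means peak rise of 1.5-fold or more in the series; tested in PC3 cells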;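 further: first round at 10 µM; read as green reporter fluorescence; hits show the peak of a series up to 25 µM; 1 = signal of infected wells without compound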
PKD1 inh: PKD1 (human) kinase inhibition; PKD1 kinase fluorescence polarization assay; inhibition, %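 (about 10 µM by stock and volumes)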; actives 0.056% (n = 200,000); AID 797;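 active means inhibition of 50% or more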;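 further: controls were vehicle for no effect and a reference inhibitor for full effect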
Target sequence (Q15139 whole entry, looked up): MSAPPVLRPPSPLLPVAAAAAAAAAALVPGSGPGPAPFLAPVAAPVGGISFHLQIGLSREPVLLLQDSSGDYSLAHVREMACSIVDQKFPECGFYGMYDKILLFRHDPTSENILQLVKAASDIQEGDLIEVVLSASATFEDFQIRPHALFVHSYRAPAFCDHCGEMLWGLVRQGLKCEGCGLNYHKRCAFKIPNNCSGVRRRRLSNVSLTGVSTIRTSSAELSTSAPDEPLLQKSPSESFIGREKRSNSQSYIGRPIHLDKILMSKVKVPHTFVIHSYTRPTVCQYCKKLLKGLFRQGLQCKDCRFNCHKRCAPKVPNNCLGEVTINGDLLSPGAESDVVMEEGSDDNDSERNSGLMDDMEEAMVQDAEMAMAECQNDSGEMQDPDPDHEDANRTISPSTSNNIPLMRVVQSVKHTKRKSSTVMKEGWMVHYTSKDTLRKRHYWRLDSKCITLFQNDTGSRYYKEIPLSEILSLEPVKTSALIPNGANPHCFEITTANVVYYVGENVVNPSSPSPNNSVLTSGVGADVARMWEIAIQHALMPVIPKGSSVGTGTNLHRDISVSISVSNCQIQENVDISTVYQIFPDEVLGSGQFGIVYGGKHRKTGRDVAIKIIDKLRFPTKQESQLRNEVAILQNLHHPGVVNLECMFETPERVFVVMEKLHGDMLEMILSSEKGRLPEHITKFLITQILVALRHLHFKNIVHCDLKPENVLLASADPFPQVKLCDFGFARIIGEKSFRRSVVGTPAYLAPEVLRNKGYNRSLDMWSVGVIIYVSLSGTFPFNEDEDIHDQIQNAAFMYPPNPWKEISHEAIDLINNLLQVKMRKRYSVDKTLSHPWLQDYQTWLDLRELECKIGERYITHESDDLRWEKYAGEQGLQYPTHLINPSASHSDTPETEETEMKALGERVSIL
INS promoter inh: TRM-6 insulin promoter activity inhibition | TRM-6 cells (human fetal islet line), insulin promoter-eGFP reporter, imaging; reporter expression induced with tamoxifen | inhibition, % at 2 µM | actives 0.9% (n = 130,000);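 active means inhibition above the mean plus 3 SD, with well images judged a real hit on visual review, cut at about 60% in these data, passing the limit was not always enough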
RGS16-Gao HTS: modulates binding between human RGS16 and Galphao; AID 1441; O15492+P09471; bead-based flow cytometry RGS16-Galphao binding, fluorescence; actives lie on both sides; actives 0.38% (n = 220,000); binding response (% of control), % at 10 µM;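 active means below 25% or above 175%, edge rows of some plates excepted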;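 further: Galphao activated by GDP with aluminum fluoride before binding; 100% = wells without compound and 0% = beads without RGS; some results beyond the cut were filed as inactive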
GALR2 agonist: GALR2 (human) receptor agonism; actives 0.48% (n = 140,000); activation, %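 (tested at 5 µM)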; O43603; GALR2-expressing cells, agonist activation read-out;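 active means above mean plus 3 SD of all compounds, about 5% in these data, not always enough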;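 further: 0% = vehicle buffer wells and 100% = reference agonist at full effect; tested in CHO reporter cells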
INS promoter inh cell count: second read-out of INS promoter inh, no call of its own (marks repeat the call); normalized cell count, %; measured here: cell count, toxicity; reference of the scale not given here;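 cells exposed to compound for 48 h; stained nuclei by imaging scaled within each plate; lower means fewer cells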
HSV augment primary fold: second read-out of HSV augment, no call of its own (marks repeat the call); fold increase; compound at 10 µM; measured here: primary screen fold increase 10 uM; tested in PC3 cells;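 GFP signal in the first replicate; 1 = infected wells without compound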
Starred values were filed as active, the others as inactive; i = inactive; nt = no result given. Outcome played no part in choosing rows; overall some 1.2% were active at least once.

Value order – HSV augment	RGS16-Gao HTS	INS promoter inh	INS promoter inh cell count	HSV augment primary fold	PKD1 inh	GALR2 agonist
CC(=C/c1ccccc1)/C=N/n1c(-c2ccco2)n[nH]c1=S
 : i	100	-13	102	0.84	-8	-1.0
Cc1cc(NC(=O)COC(=O)C2CCN(S(=O)(=O)c3ccc(Cl)cc3)CC2)no1
 : i	99	nt	nt	1	-3	-2.1
NC(=O)C1(N2CCCCC2)CCN(C(=S)Nc2ccc(F)c(Cl)c2)CC1
 : i	106	nt	nt	1	-1	nt
Nc1nc(Cl)cc(Oc2ccccc2F)n1
 : i	103	nt	nt	1.1	nt	nt
C=CCN(CC=C)S(=O)(=O)c1ncn[nH]1
 : i	102	nt	nt	0.89	2	-1.2
CC1=NN(C(=O)c2ccc(C)cc2)C(O)(C(F)(F)OC(F)(F)F)C1 (stereo not given)
 : i	100	-2	151	0.83	-6	-3.1
NC(=O)CSc1nnc(-c2cccs2)n1-c1ccccc1
 : i	104	3	52	0.89	-4	-0.6
O=C(c1ccco1)n1nc(-c2cccnc2)nc1NCc1ccco1
 : i	103	-25	88	0.95	-1	nt
N#Cc1c(NC(=O)CSc2nc(N)cc(=O)[nH]2)sc2c1CCCC2
 : i	84	nt	nt	0.93	-2	nt
C/C(=N\NC(=O)c1c[nH]c2ccccc12)c1ccco1
 : i	105	-44	78	0.87	-7	-1.1
CCOC(=O)c1c(C)[nH]c(C)c1C(=O)CSc1nc2ccccc2c(=O)n1-c1ccc(CC)cc1
 : i	108	-9	116	0.62	-3	-0.1
CC(=O)Nc1ccc(NC(=O)C(C)OC(=O)C2CC3C=CC2C3)cc1 (stereo not given)
 : i	104	nt	nt	1.3	-4	-0.4
NC(=O)c1ccc(-c2ccc(Br)cc2)o1
 : i	103	-14	87	0.92	-19	-0.4
Cc1ccc(CNC(=O)CCC2CCCN(Cc3c(C)nn(C(C)C)c3C)C2)o1 (stereo not given)
 : i	115	50	94	0.89	0	nt
CCOC(=O)N1CCN(C(=O)c2ccc(C)c(S(=O)(=O)Nc3cccc(C)c3C)c2)CC1
 : i	100	21	126	0.81	-6	0.3
COC(=O)c1sc(SC)c(S(=O)(=O)C(C)C)c1N/N=C(\C#N)S(=O)(=O)c1ccccn1
 : i	90	nt	nt	1	nt	nt
N#CC1=C2N=C(N)c3c(sc4c3CCCCC4)N2C2=C(C(=O)CCC2)C1c1ccccc1 (stereo not given)
 : i	103	13	157	0.84	6	0.5
COc1ccccc1N(C)S(=O)(=O)c1ccc(C(=O)NC2CCCCCC2)cc1
 : i	102	nt	nt	1.1	nt	nt
C=CCOc1c2ccc(C(=O)NCCc3ccc(C)cc3)cc2nn1C
 : i	100	nt	nt	0.86	0	-2.6
CCCCC(CCCC)=N/N=C/c1c(O)n(CC)c2cc(C3=NNC(=O)CC3)ccc12
 : i	nt	37	106	1.4	-6	-1.9
CC(=O)Nc1nc(-c2ccc(Cl)cc2)nc(C)c1C(C)=O
 : i	143	35	156	0.86	1	-2.6
CN1CCN(C(=O)/C(=C\c2cccs2)NC(=O)c2ccco2)CC1
 : i	94	13	85	0.94	-5	-1.1
COc1ccc2c(=O)c3c(=O)n(Cc4ccco4)c(-c4ccco4)nc3oc2c1
 : i	98	10	103	1.3	-1	1.6
Cc1ccnc(NS(=O)(=O)c2ccc(NS(=O)(=O)c3ccccc3)cc2)n1
 : i	105	-314	118	1.1	-8	-3.0
O=S(=O)(c1cccc2nsnc12)N1CCCC1
 : i	107	22	77	1.1	-16	-1.0
COc1cc2c(cc1OC)CN(C(=O)c1cccc([N+](=O)[O-])c1)CC2
 : i	98	nt	nt	0.9	nt	nt
CCOC(=O)c1cn(-c2ccccc2CO)c2c(F)c(F)c(F)cc2c1=O
 : i	95	nt	nt	0.93	-2	-1.9
CCOC(=O)c1cnc2ccc(C)cc2c1OCc1cc(F)cc(F)c1
 : i	104	17	218	0.84	-1	-1.0
Cc1ccc(N2C(=O)CC2(C#N)c2ccc(OCc3ccccc3)cc2)cc1 (stereo not given)
 : i	95	35	147	0.98	1	-1.6
CCOc1ccc(C2Oc3nc(SC)nnc3-c3ccccc3N2C(C)=O)cc1OC (stereo not given)
 : i	101	nt	nt	1.3	-13	0.9
O=C(COC(=O)COc1ccc(Nc2ccccc2)cc1)NCc1ccco1
 : i	97	-29	110	0.78	13	-2.3
CC(C[N+](C)(C)C)OC(=O)C1(c2ccccc2)CCCC1 (stereo not given)
 : i	99	nt	nt	0.97	nt	nt
O=C(O)c1ccc(Sc2nnc(-c3cccc(Br)c3)o2)c([N+](=O)[O-])c1
 : i	104	-17	108	0.65	2	3.6
Cc1ccccc1Nc1nc(N)nc(COC(=O)c2cccc(S(=O)(=O)N(C)C)c2)n1
 : i	150	19	96	0.94	-7	-0.1
CCc1ccc(-c2cn3c(n2)SCC3)cc1
 : i	112	83*	79*	0.97	7	nt
CSc1nnc(-c2ccccc2)n1C
 : i	95	25	140	0.97	-4	-3.3
C=CCn1c(=S)[nH]c2sccc2c1=O
 : i	52	0	78	0.96	-12	nt
COc1cc2c(cc1OC)C(=S)NC(C)(C)C2
 : i	95	7	65	0.99	1	-1.2
C=CCNc1sc(C(=O)c2ccc(C)cc2)c(N)c1C#N
 : i	104	62	98	1	10	-0.4
COc1ccc(OC)c2sc(NC(=O)c3ccc(Br)s3)nc12
 : i	84	nt	nt	0.92	-3	13*

The final four compounds of the part above are carried over, then new ones follow:
Value order – HSV augment	RGS16-Gao HTS	INS promoter inh	INS promoter inh cell count	HSV augment primary fold	PKD1 inh	GALR2 agonist
C=CCn1c(=S)[nH]c2sccc2c1=O
 : i	52	0	78	0.96	-12	nt
COc1cc2c(cc1OC)C(=S)NC(C)(C)C2
 : i	95	7	65	0.99	1	-1.2
C=CCNc1sc(C(=O)c2ccc(C)cc2)c(N)c1C#N
 : i	104	62	98	1	10	-0.4
COc1ccc(OC)c2sc(NC(=O)c3ccc(Br)s3)nc12
 : i	84	nt	nt	0.92	-3	13*
CCCOc1ccc(-c2nc(OC)c3ccccc3n2)cc1
 : i	115	-14	60	0.98	-7	-0.6
O=C(Nc1cccnc1)c1ccco1
 : i	104	-10	65	0.79	0	-0.4
Cn1nc([N+](=O)[O-])nc1Sc1nnnn1-c1cccc(C(=O)O)c1
 : i	101	nt	nt	0.79	nt	nt
Cc1cc(C)n(CCNC(=O)CC2C(=O)NCCN2Cc2ccc(C)o2)n1 (stereo not given)
 : i	103	nt	nt	0.92	-6	nt
Cc1ccc(C(=O)N2CCN(Cc3ccc4c(c3)OCO4)CC2)cc1[N+](=O)[O-]
 : i	107	nt	nt	1.1	0	nt
CCn1nc(C(=O)OCC(=O)c2cc(C)n(Cc3cccs3)c2C)c2ccccc2c1=O
 : i	100	13	52	1	-7	0.0
COc1ccccc1NC(=O)C1=C(C)Nc2nnnn2C1c1ccccn1 (stereo not given)
 : i	105	0	129	1	-1	-3.9
CNC(=S)N1CCC(NC(=O)c2ccco2)CC1
 : i	88	nt	nt	1.1	nt	nt
COc1ccc2nc(C)cc(N3CC(C)OC(C)C3)c2c1 (stereo not given)
 : i	104	91*	80*	0.86	-10	0.6
Cc1nc(CC(=O)N2CCN(c3cccc(C)c3C)CC2)cs1
 : i	100	0	74	0.9	-3	-1.5
COc1cccc(NC(=O)CSC2=C(C#N)C(c3ccco3)C3=C(CCCC3=O)N2)c1 (stereo not given)
 : i	104	nt	nt	0.95	-17	-1.8
N#Cc1cnn2c(-c3ccccc3)ccnc12
 : i	103	-25	85	0.84	-10	-0.3
CC(=O)Nc1ccc(NC(=O)C2CC(=O)N=C(N)S2)cc1 (stereo not given)
 : nt	114	33	66	nt	-1	-3.1
COc1ccc(CNc2nc3nc(C)cc(C)n3n2)cc1OC
 : i	54	nt	nt	0.97	3	-1.9
CCOc1ccc(NC(=O)N(CCC(C)C)C(C)c2ccco2)cc1 (stereo not given)
 : nt	102	0	78	nt	2	-1.0
O=C(CSc1nnc(Cc2cccs2)n1C1CCCCC1)N1CCN(C(=O)c2ccco2)CC1
 : i	99	nt	nt	1.3	-7	-0.1
C=CCOC(=O)C1=C(C)NC(=O)NC1c1ccc(OC(=O)c2ccco2)c(OC)c1 (stereo not given)
 : i	103	nt	nt	0.91	-2	-1.5
CC12CCC(C(=O)N3CCCc4ccccc43)(OC1=O)C2(C)C (stereo not given)
 : i	94	26	151	1.1	3	-0.4
c1ccc(OCc2nnc(-c3ccccc3)o2)cc1
 : i	99	50	147	0.96	-1	nt
COc1cc2c(cc1OC)C(c1cccc(OC)c1OC)CC(=O)N2 (stereo not given)
 : i	98	-50	101	0.91	13	-1.9
CC(C)(C)OC(=O)NNC(=O)Nc1ccccc1C(F)(F)F
 : i	103	-88	86	1.2	-3	nt
CCN(CC)CC(=O)N(CC(=O)Nc1c(C)cc(C)cc1C)C1CCCCC1
 : i	101	nt	nt	0.96	-7	-0.4
COc1ccc(CC(=O)NCCC(C)C)cc1S(=O)(=O)N1CCOCC1
 : i	106	27	86	0.96	2	nt
COc1ccc(-n2cnc3cc(N)ccc32)cc1
 : i	110	0	122	1.1	3	-2.9
CCOC(=O)c1c(N)sc2c1CCS(=O)(=O)C2
 : i	99	nt	nt	0.88	-8	-1.3
CCOc1ccc(-n2cc(-c3ccccc3)c3c(=O)[nH]cnc32)cc1
 : i	103	nt	nt	0.99	1	nt
CCN(Cc1ccccc1)Cc1cc(OC)cc(OC)c1
 : i	113	-23	64	0.88	3	1.8
Cc1cccc(C)c1NC(=O)CSCc1cccc(CSCC(=O)Nc2c(C)cccc2C)n1
 : i	100	54	128	0.95	4	-1.1
CCc1c(C)sc(NC(=O)c2ccccc2[N+](=O)[O-])c1C(N)=O
 : i	102	-23	77	1.1	2	-0.6
Cn1nnc(C(O)CN2CCOCC2)n1 (stereo not given)
 : i	103	nt	nt	1.1	10	-1.7
COc1ccc([N+](=O)[O-])cc1N(CC(O)CN1CCCCC1)S(=O)(=O)c1ccccc1 (stereo not given)
 : i	103	nt	nt	0.91	-1	nt
Brc1ccccc1-c1csnn1
 : i	103	23	150	0.88	-19	-0.2
Cc1ccc(C)c(C(=O)CCC(=O)Nc2cccnc2)c1
 : i	102	-69	106	0.95	-2	0.5
OCCNc1nc(C2CC2)nc2c1nnn2Cc1ccccc1Cl
 : i	88	44	73	0.96	0	-1.0
Cn1c(-c2c(N)n(-c3ccccc3)c3nc4ccccc4nc23)nc2ccccc21
 : i	101	3	124	1.2	-4	0.3
Cc1cc(C(F)F)n2nc(C(=O)Nc3ccc(F)cc3F)nc2n1
 : i	104	26	77	0.9	-6	-2.0
COc1cc(OC)c(C(=O)NC2CCCCCC2)cc1OC
 : i	99	-35	104	0.84	7	0.2
CC(C)Nc1ncnc2c1nnn2Cc1ccccc1
 : i	101	24	151	0.93	-8	-1.8
Cc1c(NC(=O)CSc2ncnc3ccccc23)c(=O)n(-c2ccccc2)n1C
 : i	100	nt	nt	0.93	2	nt
COc1ccc(S(=O)(=O)N2CCC(C(=O)NCCc3ccc4c(c3)OCO4)CC2)cc1
 : i	103	-14	45	0.84	-5	-0.2
COc1ccc(C(=O)C2CCCN(Cc3cccc4c3OCO4)C2)cc1OC (stereo not given)
 : i	99	nt	nt	0.87	8	nt
N=C1C(c2ccccc2)=C(O)CN1c1cccc(S(=O)(=O)N2CCOCC2)c1
 : i	100	nt	nt	1	nt	nt
N#Cc1cccc(-n2nnnc2-c2ccccn2)c1
 : i	102	36	109	0.94	-5	0.7
CCOC(=O)CNC(=O)Cn1cnc2c(nnn2-c2ccc(C)cc2)c1=O
 : i	106	nt	nt	1.1	-17	-1.5
CC(C)NC(=O)C(=O)NC1CCCCCC1
 : i	136	12	65	0.86	6	-3.1
Cc1ccc(-c2nn(-c3ccccc3)cc2C(=O)O)o1
 : i	97	7	117	1.2	0	nt
Fc1ccc2nc3n(c2c1F)CCCCCC3
 : i	102	nt	nt	0.84	-6	-2.2
CCCn1c(=O)c2[nH]cnc2n(-c2ccccc2C)c1=O
 : i	97	nt	nt	1	nt	nt
Cc1ccc(NC(NC(=O)c2ccccn2)C(Cl)(Cl)Cl)cc1 (stereo not given)
 : i	109	8	47	1	-6	0.1
NC(=O)C1(N2CCCCC2)CCN(Cc2ccccc2Cl)CC1
 : i	102	-456	42	0.73	-9	-2.9
CCOP1(=O)C=C(C(C)(C)C)OC1c1ccc(F)cc1 (stereo not given)
 : i	102	-16	125	0.99	-3	-1.0
